Kir21 block: inhibitors of mouse Kir2.1 inward-rectifier potassium channel. P35561. HEK293-Kir2.1, FluxOR thallium flux fluorescence; stronger effect = lower value. B-score at 10 µM. 310,000 tested, 0.85% active. AID 1672;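 active = fluorescence ratio B-score at or below minus 3 SD of library scores, with starting-brightness B-score within 2 SD, cut at about -4.2 in these data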;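 also: channel flux triggered by added potassium and thallium sulfate stimulus; B-score of peak minus minimum fluorescence over baseline after thallium stimulus; more negative B-score means stronger Kir2.1 block with less thallium influx; some compounds called inactive have numbers as strong as hits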
Target sequence (P35561 whole entry, looked up): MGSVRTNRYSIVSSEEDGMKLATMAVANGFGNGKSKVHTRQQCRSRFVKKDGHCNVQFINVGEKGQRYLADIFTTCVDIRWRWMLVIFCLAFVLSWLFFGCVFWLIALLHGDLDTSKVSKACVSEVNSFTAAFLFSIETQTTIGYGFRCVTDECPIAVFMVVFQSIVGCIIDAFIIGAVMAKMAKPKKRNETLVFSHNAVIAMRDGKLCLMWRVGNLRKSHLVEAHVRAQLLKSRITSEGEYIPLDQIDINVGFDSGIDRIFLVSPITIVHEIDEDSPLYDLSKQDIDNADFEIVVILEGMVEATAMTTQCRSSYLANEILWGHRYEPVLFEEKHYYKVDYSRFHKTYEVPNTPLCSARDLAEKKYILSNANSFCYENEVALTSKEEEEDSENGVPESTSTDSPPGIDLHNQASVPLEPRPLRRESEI
* hit, by the source's call. Not all compounds are listed; most or all hits stand in other tables.

Structure: CCOC(=O)c1c(C)c(C(=O)N2CCC3(CC2)OCCO3)c(C)n1CC
  Kir21 block: -0.01
Structure: Cc1cc(C=C2C(=O)N(C)C(=S)N(C)C2=O)c(C)n1-c1ccncc1
  Kir21 block: -0.06
Structure: CCOCC(=O)NC1CCSC1=O (stereo not given)
  Kir21 block: -0.27
Structure: C[C@]12CC[C@H]3C(CCC4(O)CC(O)CC[C@]34C=O)C1=CC[C@H]2c1ccc(=O)oc1 (stereo not given in full)
  Kir21 block: -0.6
Structure: O=C1CC(c2ccccc2)CC(O)=C1C=NCCN1CCN(C(=O)Cc2ccccc2)CC1 (stereo not given)
  Kir21 block: 0.64
Structure: Cc1nn(Cc2ccccc2Cl)c(Cl)c1C(=O)O
  Kir21 block: -0.29
Structure: O=C(COc1ccc2ccccc2c1)N1CCN(Cc2c[nH]c3ccccc23)CC1
  Kir21 block: 1.8
Structure: Cc1cc(Cl)ccc1OCC(=O)O
  Kir21 block: 1.4
Structure: CCn1c(=N)n(Cc2ccccc2F)c2ccccc21
  Kir21 block: -0.12
Structure: CCC1CCCCN1P(=O)(c1ccc(C)o1)C(C)(C)C (stereo not given)
  Kir21 block: 1.1
Structure: CC(=O)N1CCN(c2ccc(N=Cc3c(O)n(-c4ccc(Cl)cc4)c(=O)[nH]c3=O)cc2)CC1
  Kir21 block: 0.01
Structure: CCCCN1C(=N)C(CC)(CC)C(=O)NC1=O
  Kir21 block: -0.07
Structure: CN(C)S(=O)(=O)c1cccc(C(=O)N2CCC(C(=O)O)(c3ccccc3)CC2)c1
  Kir21 block: 1.6
Structure: Cc1nn(Cc2ccccc2)c(C)c1C(=O)O
  Kir21 block: 0.12
Structure: COC(=O)C1=C(N)OC(C)=C(C(C)=O)C12C(=O)N(C)c1ccccc12 (stereo not given)
  Kir21 block: 1.2
Structure: O=C(Nc1ccc(Cl)cc1C(=O)c1ccccc1)c1ccccc1
  Kir21 block: 0.4
Structure: COc1ccc(N=Cc2c(O)n(C)c(=O)[nH]c2=O)cc1
  Kir21 block: -0.19
Structure: C=CCn1c(O)c(/C(C)=N/N2CCCCCC2)c(=O)[nH]c1=O
  Kir21 block: 1.3
Structure: O=c1c2ccccc2nc(N2CCCC2)n1-c1ccc(Cl)cc1
  Kir21 block: 0.01

Screening data as filed in PubChem.
